# HIV Env fusion: blocks HIV Env-driven cell-cell fusion; inhibition, % at 12.3 µM; 1.1% of 360,000 active; HeLa-JRFL Env/CEM21 cell fusion, luciferase; AID 651610;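 active = mean replicate inhibition score of at least 50 and every replicate individually at or above 50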;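 note: 0% = plate neutral controls and 100% = maraviroc near 300 nM; one replicate is shown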
# Yeast UUG start: alters start codon recognition fidelity in yeast. S. cerevisiae UUG-firefly luciferase reporter, luminescence/redox ratio. activity score, % at 18.7 µM. 0.13% of 350,000 active. AID 602363;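 active = replicate mean at a twofold rise or more, about +100% in these data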;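 note: firefly luciferase made from a UUG start codon reports start codon fidelity; reporter light over untreated wells divided by growth signal over untreated wells; some hits fall short of that in this replicate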
# Rce1 inh: yeast Ras-converting enzyme inhibition | calls only | yeast membranes, quenched prenylated peptide cleavage fluorescence | 0.27% of 290,000 active;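 active = fall in fluorescence gain of 50% or more versus controls, with final raw signal at or below 3038400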;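 note: plate controls were neutral control wells for no effect and wells lacking membranes for full effect; tested at 10 µM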
# Target sequence (Q03530 whole entry, looked up): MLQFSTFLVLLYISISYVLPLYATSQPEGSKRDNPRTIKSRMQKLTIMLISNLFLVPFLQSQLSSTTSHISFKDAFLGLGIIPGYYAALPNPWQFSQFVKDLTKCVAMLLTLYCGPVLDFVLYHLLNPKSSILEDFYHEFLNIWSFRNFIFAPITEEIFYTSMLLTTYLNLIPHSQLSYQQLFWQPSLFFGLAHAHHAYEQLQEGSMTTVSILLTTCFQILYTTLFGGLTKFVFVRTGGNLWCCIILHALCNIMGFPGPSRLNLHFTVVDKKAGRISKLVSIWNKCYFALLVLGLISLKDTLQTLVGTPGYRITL
# MT1-MMP act inh: MT1-MMP (human) activation inhibition. P50281. HT1080 RFP-PRO-GFP cells, GFP/RFP ratio fluorescence, overnight; percent of plate control window, DMSO zero. GFP/RFP ratio change, % at 20 µM. 0.061% of 360,000 active;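 active = GFP/RFP ratio change of at least 30% with cell ATP level not reduced by more than half and red fluorescence within 50% of control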; note: strong numbers were not always called active
#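 Assay system: HT1080 cells carrying an RFP-PRO-GFP reporter | Dosing: Single dose of 20 µM compound, 1% DMSO final | Incubation: Cells overnight before dosing, compound overnight, 37 °C, 5% CO2 | Evaluation: GFP/RFP fluorescence ratio | Control set: DMSO and RFP-L50D-GFP cell wells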
# eIF4H FP inh: inhibitors of RNA binding by human eIF4H; 0.94% of 290,000 active; inhibition, % at 35 µM; Q15056; AID 2012; eIF4H fluorescence polarization binding assay;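 active = 50% or more with normal probe brightness, or confirmed in later tests; about a fifth of its hits are not listed in these tables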;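 note: calls also rest on retests at 20 µM and on dose response follow-up; 0% = protein and probe with vehicle and 100% = probe without protein; strong numbers were not always called active; many hits fall short of the cut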
# CSC inhib: cancer stem cell inhibition | inhibition, % at 7.5 µM | 1.1% of 300,000 active | cancer stem cell-like cells viability, luminescence;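 active = mean at 75% or more and at least half the replicates too; tested in HMLE shEcad cells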;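 note: 0% = median of negative and 100% = median of positive control wells; the first replicate is given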
# PABP FP inh: blocks human PABP binding to poly(A) RNA; P11940; fluorescence polarization; inhibition, % at 35 µM; 1% of 290,000 active; AID 2014;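 active = 50% or more with normal probe brightness, or confirmed in later tests; about a fifth of its hits are not listed in these tables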;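 note: calls also rest on retests at 20 µM and on dose response follow-up; controls were probe without protein and protein plus probe with vehicle; some compounds called inactive have numbers as strong as hits; many hits fall short of the cut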
# Target sequence (P11940 whole entry, looked up): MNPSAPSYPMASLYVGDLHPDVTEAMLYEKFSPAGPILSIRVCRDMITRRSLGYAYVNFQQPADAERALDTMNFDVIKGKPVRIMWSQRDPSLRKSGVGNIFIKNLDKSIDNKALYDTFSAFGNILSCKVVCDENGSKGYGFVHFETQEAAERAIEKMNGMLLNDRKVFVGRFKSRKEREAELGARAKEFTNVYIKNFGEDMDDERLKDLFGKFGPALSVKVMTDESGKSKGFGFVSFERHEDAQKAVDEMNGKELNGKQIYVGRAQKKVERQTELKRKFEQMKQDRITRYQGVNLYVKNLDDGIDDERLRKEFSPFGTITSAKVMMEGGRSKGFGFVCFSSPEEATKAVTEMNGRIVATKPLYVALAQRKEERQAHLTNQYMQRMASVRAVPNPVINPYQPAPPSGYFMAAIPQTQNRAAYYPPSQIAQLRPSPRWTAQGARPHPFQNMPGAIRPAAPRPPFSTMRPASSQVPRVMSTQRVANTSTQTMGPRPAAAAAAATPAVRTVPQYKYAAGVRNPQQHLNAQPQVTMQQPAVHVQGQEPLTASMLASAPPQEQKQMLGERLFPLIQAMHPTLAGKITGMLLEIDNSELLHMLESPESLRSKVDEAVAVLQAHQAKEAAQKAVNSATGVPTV
# MT1-MMP act inh RFP: also measured in MT1-MMP act inh; calls as there; RFP signal change, %; measured here: RFP expression control read;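 0 = vehicle wells; hits needed this value within 50% of zero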
# Starred values were filed as active, the others as inactive; i = inactive; · = no result given. This is a subset. The share of hits here may be higher or lower than overall.
SMILES,HIV Env fusion,Yeast UUG start,Rce1 inh,MT1-MMP act inh,MT1-MMP act inh RFP,eIF4H FP inh,CSC inhib,PABP FP inh
CCOc1ccc(-c2cc(C(=O)NCc3cc(OC)cc(OC)c3)[nH]n2)c(C)c1,19,-28,·,2,-5,·,·,·
Cc1ccc2nc(C(F)(F)F)c(C#N)c(N)c2c1,·,-13,i,-10,-7,-10,23,13
COCCN1C(=O)N(c2cccc(C)c2)C(=O)C1CC(=O)Nc1cc(OC)cc(OC)c1 (stereo not given),9,-5,i,0,3,-7,-8,0
COc1cccc(C(=O)OCC(=O)Nc2ccc(N3CCOCC3)cc2)c1,-13,-12,·,1,1,·,·,·
Cc1ccc(S(=O)(=O)N2CCC(C(=O)N[C@@H](C)C(=O)NC3CCS(=O)(=O)C3)CC2)cc1 (stereo not given in full),2,1,i,·,·,-4,-7,2
Cc1onc(-c2ccccc2Cl)c1C(=O)N[C@@H](C)c1ccccc1,-1,3,i,-2,3,·,-5,·
CCCn1nnc(NC(=O)c2ccc([N+](=O)[O-])cc2Cl)n1,-7,·,i,1,2,-1,13,3
Cc1ccc(NC(=O)COc2ncnc3ccccc23)cc1S(=O)(=O)N1CCOCC1,-2,-32,i,0,0,0,-13,3
CN(c1ccccc1)S(=O)(=O)c1cccc(C(=O)Nc2ncn[nH]2)c1,5,·,i,0,-1,12,5,2
O=C(CSc1nnc(-c2ccccc2)n1Cc1ccccc1)NNC(=O)c1ccccc1O,4,-23,i,6,4,6,·,-12
Cc1cc2nc(CCN(Cc3cccnc3)C(=S)Nc3ccccc3)[nH]c2cc1C,·,-27,i,5,-2,-3,-7,2
COc1ccc(S(=O)(=O)N2CCCCC2)cc1NC(=S)Nc1ccccc1,-1,-13,i,0,2,-7,-3,7
COc1ccc(N=C2C(=Nc3ccc(OC)cc3)N(c3ccc(OC)cc3)C(=S)N2c2ccccc2)cc1,·,-19,·,-6,1,-5,5,-6
COCCNC(=O)COC(=O)c1ccc(S(=O)(=O)N2CCOCC2)cc1,-2,-9,i,-5,1,-4,-13,-9
CCCOc1cccc(-c2nc3ccccc3c(=O)o2)c1,-39,·,i,-3,-1,-1,25,1
CC(=O)c1cccc(N(C(=O)c2ccco2)C(C(=O)NC2CCCCC2)c2ccc(C)o2)c1 (stereo not given),13,-13,i,2,3,2,0,2
Cc1ccc2oc(-c3cc(NC(=O)c4ncn[nH]4)ccc3O)nc2c1,-32,6,i,4,1,9,23,-12
CCc1ccc(C(=O)COC(=O)c2cnc(C)cn2)cc1,-14,1,i,-1,3,-3,-8,11
Cc1cc(C)nc(-n2ncc3c2CC(c2ccc(F)cc2)CC3=O)n1 (stereo not given),2,-4,i,1,-2,24,3,-12
CCOC(=O)c1[nH]c(C)c(/C(O)=C2\C(=O)C(=O)N(CCCN(CC)CC)C2c2cccnc2)c1C (stereo not given),·,-65,i,-6,4,·,7,·

# An excerpt of these results, tab-delimited:
mol	HIV Env fusion	Yeast UUG start	Rce1 inh	MT1-MMP act inh	MT1-MMP act inh RFP	eIF4H FP inh	CSC inhib	PABP FP inh
COc1cccc(C(=O)OCC(=O)Nc2ccc(N3CCOCC3)cc2)c1	-13	-12	·	1	1	·	·	·
Cc1ccc(S(=O)(=O)N2CCC(C(=O)N[C@@H](C)C(=O)NC3CCS(=O)(=O)C3)CC2)cc1 (stereo not given in full)	2	1	i	·	·	-4	-7	2
Cc1onc(-c2ccccc2Cl)c1C(=O)N[C@@H](C)c1ccccc1	-1	3	i	-2	3	·	-5	·
CCCn1nnc(NC(=O)c2ccc([N+](=O)[O-])cc2Cl)n1	-7	·	i	1	2	-1	13	3

# In the list so far, these have a halogen.
SMILES,HIV Env fusion,Yeast UUG start,Rce1 inh,MT1-MMP act inh,MT1-MMP act inh RFP,eIF4H FP inh,CSC inhib,PABP FP inh
Cc1ccc2nc(C(F)(F)F)c(C#N)c(N)c2c1,·,-13,i,-10,-7,-10,23,13
Cc1onc(-c2ccccc2Cl)c1C(=O)N[C@@H](C)c1ccccc1,-1,3,i,-2,3,·,-5,·
CCCn1nnc(NC(=O)c2ccc([N+](=O)[O-])cc2Cl)n1,-7,·,i,1,2,-1,13,3
Cc1cc(C)nc(-n2ncc3c2CC(c2ccc(F)cc2)CC3=O)n1 (stereo not given),2,-4,i,1,-2,24,3,-12

# Further compounds:
SMILES,HIV Env fusion,Yeast UUG start,Rce1 inh,MT1-MMP act inh,MT1-MMP act inh RFP,eIF4H FP inh,CSC inhib,PABP FP inh
Cc1ccccc1OCCC(=O)Nc1ccccc1C(=O)NC1CC1,16,·,i,1,2,·,-10,·
CSc1ncccc1C(=O)Nc1ccc(OC(F)(F)F)cc1,-13,-17,i,3,-1,8,6,4
Cc1ccccc1OC1CCN(C(=O)C2CCC(=O)N(C3CCCC3)C2)CC1 (stereo not given),11,-15,i,0,-7,-12,·,-2
Cc1ccc(S(=O)(=O)N(Cc2ccc(F)cc2)C(=O)N2CCN(C)CC2)cc1,-1,0,i,0,4,·,-20,·
Cc1ccc(C(=O)NC2=NCCS2)cc1,-4,·,i,·,·,2,6,3
CC1(C)CC(=O)C(C=NCCN2CCN(CCc3ccccc3)CC2)=C(O)C1,·,·,i,5,-1,6,5,4
O=C(/C=N/O)NCc1ccncc1,·,0,i,-2,3,-9,-9,-8
Cn1c2c(c(=O)n(C)c1=O)C(c1cccc(F)c1)C(C#N)=C(N)O2 (stereo not given),7,·,i,-1,-3,-14,-13,-11
CCCCCN=C(N)N/N=C/c1c[nH]c2ccc(OC)cc12,2,-2,i,-13,-22,·,119*,·
COc1ccc(OC)c(S(=O)(=O)N2CCC(c3nc4ccccc4[nH]3)CC2)c1,-2,-21,i,-4,-3,·,-6,·
Clc1ccc(-c2nnc(CCc3ccccc3)o2)c(Cl)c1,·,6,i,-5,-5,-3,1,-10
Cc1c(C)c2cc3c4c(oc3c(C)c2oc1=O)CCCC4,-18,·,i,-16,-12,3,-13,5
COc1ccc(CCNC(=O)COC(=O)c2ccc(S(=O)(=O)N3CCCC3)cc2)cc1OC,1,-5,·,-3,-2,·,-19,·
Cc1onc(-c2c(F)cccc2Cl)c1C(=O)OCC(=O)NCc1ccccc1,-1,9,·,-1,0,·,-1,·
O=C(c1ccc(Cl)c(Cl)c1)N(Cc1ccco1)c1ccc(O)cc1,·,12,i,-5,-13,-8,21,-15
N#CC1=C(SCC(=O)c2ccccc2)NC2=C(C(=O)CCC2)C1c1ccco1 (stereo not given),·,-14,i,-20,-8,12,62,10
Cc1[nH]c(=O)c(C#N)c2c1CCCC2,-61,·,i,1,3,-5,·,-8
Cc1cc(C(=O)NCc2ccco2)c2cc(F)ccc2n1,-4,0,i,-6,-3,0,-12,3
CCOC(=O)c1c(-c2cccs2)csc1NC(=O)COC(=O)c1c(C)noc1C,-55,-5,i,1,-10,5,11,-5
COc1ccc([C@H]2CC(=O)C=C(c3ccc(F)nc3)C2)cc1OC,-28,-9,·,1,-1,·,-13,·
Cc1c(C(=O)NCCC2=CCCCC2)sc2ncnc(N3CCCCC3C)c12 (stereo not given),14,-22,i,-4,-2,-4,-15,4
O=C(NCCOC(=O)Nc1cccc2ccccc12)OCc1ccccc1,27,-11,·,-1,2,·,·,·
N#Cc1c(NC(=O)c2ccccc2Cl)n(Cc2ccccc2)c2nc3ccccc3nc12,20,·,·,-78,-23,-4,112*,4
CCCn1c(SCC(=O)Nc2cccc(C(=O)OC)c2)nnc1-c1cccnc1,·,-20,i,1,-1,0,-7,0
CNc1nc(N/N=C/c2cc([N+](=O)[O-])ccc2F)nc(Nc2ccccc2)n1,13,-24,·,-2,-5,·,·,·
O=S(=O)(Nc1ccc(-n2cnnn2)cc1)c1cccc(Cl)c1,-12,-7,·,2,1,·,·,·
O=C(Cc1ccc(-n2cccc2)cc1)N1CCN(c2ccccc2F)CC1,·,·,i,0,-3,-4,12,-1
CC(C)CC(=O)NNC(=S)NCc1ccco1,15,·,i,-3,0,-2,3,12
CN(C)CCN(C(=O)CCS(=O)(=O)c1ccccc1)c1nc2c(F)cccc2s1,-7,-21,i,0,5,-8,-3,-5
CC1CCC2C(C1)c1sc(=O)[nH]c1SC2(C)C (stereo not given),-5,-18,i,-1,-6,-1,27,0
O=C(CSc1nnc(NC(=O)c2c(F)cccc2F)s1)NC1CCCCC1,6,-8,i,2,0,0,5,5
Fc1c(CSC(=S)N2CCOCC2)cccc1CSC(=S)N1CCOCC1,22,-7,i,1,-12,5,6,-6
CCOc1cc(C(=O)N(C)CC(=O)Nc2cccc(F)c2)ccc1OCC(=O)N1CCOCC1,-24,-14,i,1,-1,·,-9,·
Cc1cc(S(=O)(=O)N2CCN(CC(=O)NCCc3cccs3)CC2)ccc1Br,-78,6,·,5,-3,·,23,·
CCN(CC)CCNC(=O)C(=O)Nc1ccc(C(=O)OC)cc1,4,-4,i,1,3,2,-2,5
C#CCOCCOCCOCCNc1nc(N2CCN(C(=O)[C@H](CCC(=O)O)n3cc(C(N)CC(C)C)nn3)CC2)nc(N2CCN(C(=O)[C@H](CCC(=O)O)n3cc(C(N)CC(C)C)nn3)CC2)n1 (stereo not given in full),·,9,i,-4,3,46,2,41
COc1ccc(NC(=O)c2ccc3nc(C)c(N(C)C(=O)CCc4ccccc4)n3c2)cc1OC,6,-9,·,1,-5,·,·,·
CC(C)NC(=O)CS(=O)(=O)c1ccccc1,-24,-2,i,-1,-2,7,2,5
COc1ccc(-c2sc(Nc3ccccc3)n[n+]2C)c(C)c1C,0,-10,i,0,-4,-3,13,0
Cc1cc(Nc2ccc(C(=O)O)cc2)n2nc(C)nc2n1,-24,-3,i,3,10,-4,·,-6
COc1cc(Cl)c(S(=O)(=O)N2CC(C)OC(C)C2)cc1Cl (stereo not given),-41,-10,i,-2,0,4,0,-3
COCC(C)n1c(SCC(=O)NNC(=O)c2ccc(F)cc2)nc2ccccc2c1=O (stereo not given),·,·,i,2,5,9,0,-2
O=S(=O)(c1ccccc1)C(Br)S(=O)(=O)c1ccccc1,6,-34,·,4,7,·,·,·
CCOC(=O)C1CCCN(C(=O)c2cc(Nc3ccc(OC)cc3)nc3ccccc23)C1 (stereo not given),45,5,i,5,5,8,-12,12

# 3 entries out of the list, ordered by formula weight, highest first:
SMILES,HIV Env fusion,Yeast UUG start,Rce1 inh,MT1-MMP act inh,MT1-MMP act inh RFP,eIF4H FP inh,CSC inhib,PABP FP inh
COCC(C)n1c(SCC(=O)NNC(=O)c2ccc(F)cc2)nc2ccccc2c1=O (stereo not given),·,·,i,2,5,9,0,-2
CCOC(=O)C1CCCN(C(=O)c2cc(Nc3ccc(OC)cc3)nc3ccccc23)C1 (stereo not given),45,5,i,5,5,8,-12,12
Cc1cc(Nc2ccc(C(=O)O)cc2)n2nc(C)nc2n1,-24,-3,i,3,10,-4,·,-6
